# Mtb betalactam – beta-lactam sensitization of Mtb H37Rv, H37Rv; M. tuberculosis H37Rv growth with meropenem, percent inhibition; hits of this screen are not shown here; inhibition, % at 25 µM; 0.27% of 330,000 active;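 active means about 74% or more and at least 40 points above the plate without the antibiotic, then above 30% in a dose series; inconclusive means first-round hits that could not be retested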;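 further: growth measured after seven days incubation then overnight dye step; 0% = bacteria only wells and 100% = bacteria with antibiotic; twin plates without the antibiotic show which effects depend on it; some results filed as inactive read as strong as hits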
# RecA intein inh – Mtb RecA intein splicing inhibitors, primary screen, biochemical, fluorescence, HTS; cell-free RecA intein splicing; 0.75% of 290,000 active; Protein RecA (Mycobacterium tuberculosis (strain ATCC 25618 / H37Rv)), P9WHJ3; inhibition, %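 (about 9 µM by stock and volumes)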; AID 2221, 2009; in the data active means inhibition above about 30%; inconclusive means no clear call, values can overlap the other calls;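 further: 0% = vehicle wells and 100% = reference inhibitor control wells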
# Target sequence (P9WHJ3 whole entry, looked up): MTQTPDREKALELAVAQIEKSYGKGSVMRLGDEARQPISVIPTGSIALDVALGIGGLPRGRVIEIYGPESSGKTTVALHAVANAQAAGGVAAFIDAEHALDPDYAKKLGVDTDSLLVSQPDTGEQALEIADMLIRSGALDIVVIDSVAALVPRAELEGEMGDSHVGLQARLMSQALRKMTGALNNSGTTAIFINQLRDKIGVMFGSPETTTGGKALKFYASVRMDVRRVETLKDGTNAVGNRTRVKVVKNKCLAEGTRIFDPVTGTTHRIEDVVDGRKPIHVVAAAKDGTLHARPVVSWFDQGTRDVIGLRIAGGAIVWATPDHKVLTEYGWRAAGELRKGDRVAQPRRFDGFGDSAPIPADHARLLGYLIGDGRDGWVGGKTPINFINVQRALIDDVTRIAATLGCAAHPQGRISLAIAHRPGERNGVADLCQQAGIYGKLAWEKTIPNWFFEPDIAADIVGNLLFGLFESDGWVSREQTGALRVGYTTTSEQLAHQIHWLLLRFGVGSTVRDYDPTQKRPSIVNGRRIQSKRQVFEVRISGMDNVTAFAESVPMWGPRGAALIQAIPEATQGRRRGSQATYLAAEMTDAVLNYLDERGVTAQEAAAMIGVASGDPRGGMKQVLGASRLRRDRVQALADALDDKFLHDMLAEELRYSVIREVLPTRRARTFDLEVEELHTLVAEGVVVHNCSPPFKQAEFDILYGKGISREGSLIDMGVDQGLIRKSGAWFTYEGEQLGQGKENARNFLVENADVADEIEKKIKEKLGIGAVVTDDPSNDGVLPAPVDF
# Arbovirus anti – antivirals against arbovirus infection, primary screen, cell-based, full library, 10K replicate subset; inhibition, % at 10 µM; 0.37% of 200,000 active; arbovirus infection cell-based antiviral screen;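 active means inhibition from about 30%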;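 further: bluetongue infection of BSR cells; cell survival read as ATP light after 72 h; 0% = infected wells without compound and 100% = uninfected wells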
# Mtb growth – M. tuberculosis H37Rv growth inhibitors, H37Rv strain (AID 1626) | M. tuberculosis H37Rv growth inhibition; higher % means a stronger effect | 0.95% of 220,000 active | one-dose inhibition, % at 10 µM; IC50 in µM for titrated hits;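 active means confirmed in a dose series; inconclusive means inhibition above 80% but not taken into the dose series; inactive means below 80% or under 30% at every dose of the series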;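 further: bacteria incubated seven days before Alamar blue readout; 0% = bacteria only wells and 100% = bacteria with antibiotic wells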
# YopH inh – YopH tyrosine phosphatase inhibitors, primary screen, biochemical, fluorescence Ex485/Em525 | YopH tyrosine phosphatase [Yersinia enterocolitica] | inhibition, %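 (about 10 µM by stock and volumes)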 | 0.16% of 140,000 active;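 active means inhibition of 50% or more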;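 further: controls were vehicle for no effect and minimum signal wells for full effect; inactives centre near -20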
# An asterisk follows results filed as active; ? = inconclusive; . = not tested or not shown.
# Values run as follows: Mtb betalactam | RecA intein inh | Arbovirus anti | Mtb growth | YopH inh
CCCCN(C(=O)Cn1nnc2ccccc21)C(C(=O)NCc1ccco1)c1ccncc1 (configuration not stated)
  5 | -11 | 5 | -7% | -31
Cc1ccc(NC(=O)N(CCCN2CCOCC2)Cc2cccnc2)cc1C
  -4 | -0.3 | 17 | -5% | -7
O=C(CCc1nc(-c2ccccc2F)no1)Nc1cccnc1
  -13 | 0.1 | . | . | .
CCCS(=O)(=O)c1c(S(=O)(=O)CCC)c2ccc(C(C)=O)cn2c1C(=O)OC
  -15 | 6.6 | 0 | 0% | .
Cc1cc(C(=O)Nc2ccccc2N2CCOCC2)c2ccccc2n1
  -7 | -0.7 | 4 | -3% | -18
CC1(C)CC(=O)C=C(Nc2ccc(Cl)cc2)C1
  -8 | 1.1 | . | . | .
COc1ccccc1C(C(=O)NC1CCCC1)N(C(=O)c1csnn1)C1CC1 (configuration not stated)
  3 | -1.0 | . | . | .
Cc1ccc(NC(=O)CC(C)CC2=NS(=O)(=O)c3ccccc3N2)cc1 (configuration not stated)
  -9 | 0.5 | . | . | .
CC1CCC2(CC1)NC(=O)N(CC(=O)NC(=O)NC1CCCC1)C2=O (configuration not stated)
  3 | -1.3 | 4 | -1% | -14
CC1CCC(NC(=O)c2cc(S(=O)(=O)N3CCCCC3)c[nH]2)CC1 (configuration not stated)
  0 | 2.2 | . | . | .
COc1ccc(Cl)cc1S(=O)(=O)Nc1ccncc1
  -4 | -1.4 | -5 | -4% | .
COCCN(C(=S)Nc1c(C)cccc1C)C(C)c1cccs1 (configuration not stated)
  -6 | 4.1 | 10 | -6% | .
COC(C(=O)Nc1ccc(S(=O)(=O)Nc2c(C)cccc2C)cc1)c1ccccc1 (configuration not stated)
  1 | 2.3 | -10 | 1% | -30
CN(C(=O)CSc1nncn1-c1ccccc1)c1ccccc1
  -1 | 1.7 | . | . | .
COc1ccc2nc(NC(=O)CSc3nc(SC)ns3)sc2c1
  63 | -9.0 | 2 | ? | -23
CCCC(=O)Nc1cc(OC)c(NC(=O)NC2CCCCC2)cc1OC
  0 | -1.4 | 0 | -5% | -8
COc1ccc(C(=O)NCC(=O)N2CCC(C)CC2)cc1OC
  -12 | 0.3 | 0 | -2% | 9
CSc1ccc(CN2CCN(C(C)C)C(CCO)C2)cc1 (configuration not stated)
  -1 | -0.8 | -1 | 1% | .
COc1ccc(CCNc2cc(-c3ccccc3)nc3ncnn23)cc1
  86 | 1.5 | 9 | . | -153
NC(=NC(=O)c1ccc(OCC(F)(F)F)nc1)c1ccccc1
  -4 | -2.8 | . | 4% | .
Cc1csc(-c2coc3cc(O)cc(C)c3c2=O)n1
  15 | -2.2 | 20 | 2% | -49
CC(=O)N1c2ccccc2NC(=O)C1(C)C
  1 | 1.7 | 1 | -1% | -28
Cc1ccc(C(=O)O)cc1N1C(=O)c2cccc3cc(Br)cc(c23)C1=O
  -6 | -0.5 | -2 | . | -132
Cc1ccc2nc(-c3cccnc3)oc2c1
  2 | -3.0 | -3 | -10% | -39
COc1ccc(OCC(O)CN2C(=O)c3ccccc3S2(=O)=O)cc1 (configuration not stated)
  14 | -0.6 | -3 | 0% | -33
O=C1CC(N2CCN(c3ccccc3F)CC2)C(=O)N1c1ccc(F)cc1 (configuration not stated)
  -5 | -1.9 | . | -4% | -10
O=C(Cn1ccnc1)c1ccc(Cl)cc1
  4 | 0.8 | . | . | .
COC(=O)c1c(NC(=S)NNC(=O)c2ccc(Cl)s2)sc(C(=O)N(C)C)c1C
  -8 | -1.3 | . | . | .
CN(C)c1ccc(-c2nc3cnccn3c2Nc2ccc3c(c2)OCCO3)cc1
  5 | -7.6 | . | 10% | .
COc1ccc(C(=O)Nc2ccnn2C2CCN(CCC(C)c3ccc(C)o3)CC2)cc1 (configuration not stated)
  -15 | -1.6 | . | . | .

# Whole records from above. Order of screens: Mtb betalactam, RecA intein inh, Arbovirus anti, Mtb growth, YopH inh
# Listed for CN(C)c1ccc(-c2nc3cnccn3c2Nc2ccc3c(c2)OCCO3)cc1 → 5, -7.6, ., 10%, .
# Listed for CC(=O)N1c2ccccc2NC(=O)C1(C)C → 1, 1.7, 1, -1%, -28
# Listed for NC(=NC(=O)c1ccc(OCC(F)(F)F)nc1)c1ccccc1 → -4, -2.8, ., 4%, .
# Listed for CCCC(=O)Nc1cc(OC)c(NC(=O)NC2CCCCC2)cc1OC → 0, -1.4, 0, -5%, -8

# Additional entries follow.
# Values run as follows: Mtb betalactam | RecA intein inh | Arbovirus anti | Mtb growth | YopH inh
COc1ccccc1C(O)c1nccn1C (configuration not stated)
  -7 | -0.8 | . | -1% | .
Cc1cccc(NS(=O)(=O)c2cc(Cl)ccc2Cl)n1
  9 | -1.3 | . | . | .
CC(=O)NC(CC(=O)NC(C)c1ccc(Cl)cc1Cl)c1ccccc1 (configuration not stated)
  -3 | -4.5 | 1 | 3% | .
COc1ccc([C@@H]2[C@@H]3C(=O)N(C(C)(C)C)C(=O)[C@@H]3[C@]3(Cc4ccc(Cl)cc4)C(=O)N(c4ccc(OC)cc4)C(=O)N23)cc1
  -1 | -1.8 | . | . | .
COc1cc(/C=C2/C(=O)NC(=O)N(c3ccccc3)C2=O)ccc1O
  -2 | -1.3 | 2 | -16% | -35
COc1ccc(-c2nn3c(COc4ccccc4)nnc3s2)cc1OC
  7 | 3.2 | 4 | -6% | -36
COc1ccc2c(c1)-c1nc(/N=C/c3ccc(O)c(OC)c3)sc1CC2
  0 | . | 9 | -6% | -23
O=C(CSc1cccc(C(F)(F)F)c1)Nc1cc(S(=O)(=O)N2CCCC2)ccc1Cl
  -5 | 2.3 | 2 | 1% | -14
O=C(NCCCCNC(=O)c1c(F)c(F)c(F)c(F)c1F)c1c(F)c(F)c(F)c(F)c1F
  0 | -1.6 | 1 | -5% | -13
Cc1ccc(C(=O)/C=C\Nc2ccc(C)c(C)c2)cc1
  91 | -2.2 | 2 | >100µM* | -23
CC1CN=C(Nc2ccccc2)S1 (configuration not stated)
  1 | . | 5 | 11% | -40
Cc1coc2c(C)c3oc(=O)cc(-c4ccccc4)c3cc12
  12 | . | . | . | -31
O=Cc1ccc(-n2cccn2)cc1
  -6 | -2.5 | 12 | -2% | .
Cc1csc(SCC(=O)c2c(N)n(CC(C)C)c(=O)n(C)c2=O)n1
  -8 | -0.8 | 0 | 6% | -17
CCS(=O)(=O)N1CCCC(C(=O)c2ccc(OC)cc2C)C1 (configuration not stated)
  -3 | 0.6 | 0 | -4% | .
Cc1nnc(SCC(=O)Nc2ccc3c(c2)OCO3)[nH]c1=O
  79 | -3.5 | 2 | ? | .
CCOC(=O)c1ccc(OS(=O)(=O)c2ccccc2)c(OC)c1
  3 | 1.3 | 0 | 3% | -27
Cc1occc1C(=O)NNC(=O)Cc1ccccc1
  -6 | -3.3 | 6 | -3% | -20
COc1ccc(NC(=S)NCCc2ccc(F)cc2)c(OC)c1
  -3 | 0.4 | 11 | 10% | -4
CCOC(=O)c1ccccc1NC(=O)CSc1nnc(C(C)C)n1CC
  -5 | -0.8 | 4 | -4% | -14
O=S(=O)(c1ccc2nc(SCc3ccc(Cl)cc3)[nH]c2c1)N1CCOCC1
  3 | 6.5 | 11 | -3% | -32
COc1ccccc1C(=O)O/N=C(/C)c1ccc(N2C(=O)C3CCCCC3C2=O)cc1 (configuration not stated)
  -6 | 2.4 | -2 | 0% | -14
O=S1(=O)N=CN(Cc2cccc(F)c2)c2ccccc21
  4 | 2.2 | 5 | 1% | -36
Cc1ccc(C2(C)CC(C)(C)N(C(=O)CSc3nnc(C)s3)c3ccccc32)cc1 (configuration not stated)
  -2 | 20 | -23 | 6% | -16
Nc1nc(SCC(=O)O)[nH]c(=O)c1NC(=O)c1ccccc1F
  11 | -1.5 | -3 | 1% | .
O=C(/C=C/c1ccco1)N(Cc1cccc(F)c1)C1CCS(=O)(=O)C1 (configuration not stated)
  -1 | -14 | . | . | .
O=C(Cn1c(=O)sc2ccccc21)Nc1ccc(S(=O)(=O)N2CCCC2)cc1
  ? | 1.3 | 10 | -2% | -14
COCCSc1nnc(NC(=O)CCS(=O)(=O)c2ccccc2)s1
  -2 | 1.0 | . | . | .
O=C(Nc1ccc2[nH]ccc2c1)c1ccccc1
  -4 | 5.6 | . | -5% | .
COc1cccc(-c2nc(-c3ccccc3)nc(N3CCN(C)CC3)c2C#N)c1
  96 | 6.4 | -30 | 8.8µM* | .
COc1cccc(CC(=O)Nc2nc(C)cs2)c1
  2 | -2.6 | 11 | 0% | .
Cc1ccccc1NC(=S)N=Nc1c(O)n(C)c2ccc(S(=O)(=O)N3CCOCC3)cc12
  2 | 41* | 0 | -3% | -14
O=C(NCCN1CCN(C(=O)c2cccc(Br)c2)CC1)C(=O)NCc1ccccc1
  6 | 2.1 | . | . | .
CC(C)NC(=O)c1[nH]nc2c1CCc1ccccc1-2
  1 | -1.0 | . | . | .
COc1ccc2cc3cc(C(=O)N4CCN(c5ccccc5)CC4)oc3nc2c1
  15 | -2.4 | 4 | -4% | -3
CN(C(=O)COc1ncnc2c1cnn2-c1ccccc1)C1CCCCC1
  -3 | 2.1 | 5 | -2% | .
O=C(CCCOc1ccc(Cl)cc1Cl)NNC(=O)c1ccc(NC(=O)c2ccccc2)cc1
  0 | -1.9 | -3 | 2% | -19
COc1cccc(OC)c1OCCN(C)C
  -10 | . | 8 | 0% | -24
COc1ccc(OC)c(C(=O)CN2C(=O)NC(C)(c3ccccc3)C2=O)c1 (configuration not stated)
  -3 | 0.9 | 0 | -2% | -4
C=CCNC(=O)CN1CCC(c2nc3ccccc3[nH]2)CC1
  6 | -1.6 | . | . | .
O=C(O)c1cccc(NS(=O)(=O)c2ccc(NC(=O)c3ccco3)cc2)c1
  -2 | -1.0 | 1 | -1% | .
O=[N+]([O-])c1cc(C(F)(F)F)cc([N+](=O)[O-])c1NN=C1CCCCC1
  97 | 0.0 | 13 | ? | -18
COc1ccc(S(=O)(=O)NCc2cccnc2)cc1Br
  -4 | -4.1 | . | . | .
COc1ccc(S(=O)(=O)N2CCOCC2)cc1NC(=O)CCNC(=O)c1ccc(Br)cc1
  -11 | 0.1 | . | . | .
CCCn1c(=O)c(C(=O)NNS(=O)(=O)c2ccc(NC(=O)OC)cc2)c(O)c2ccccc21
  6 | -0.7 | . | . | .
Cc1ccc2cc(CCNC(=O)c3ccc4c(c3)OCO4)c(=O)[nH]c2c1C
  -1 | 0.7 | -11 | 3% | -30
Cc1cc(NC(=O)Nc2ccc(Cl)c(Cl)c2)no1
  -1 | 1.2 | . | . | .
Cc1oc(-c2cccc(Cl)c2)nc1CSCC(=O)O
  -5 | -1.1 | 10 | -1% | -42
CC(=O)c1ccc(OC(=O)C(CCS(C)(=O)=O)N2C(=O)c3ccccc3C2=O)cc1 (configuration not stated)
  5 | . | 13 | 4% | -24
CCc1ccc(N2C(=O)CN(Cc3cccs3)C2=S)cc1
  -4 | -0.4 | 1 | 1% | .
Cc1ccsc1/C=N/NC(=O)CO
  5 | -4.9 | -2 | -6% | .
Cc1cccn2c(=O)c3cc(C(=O)N4CCN(C(=O)c5ccco5)CC4)n(C)c3nc12
  2 | -16 | 0 | . | -12
CCN(CC)S(=O)(=O)c1ccc2oc(Nc3ccc(OC)cc3OC)nc2c1
  -2 | 0.4 | . | . | .
CCOC(=O)c1cnc(-n2nc(C)cc2C)nc1NCCc1ccccc1
  89 | 12 | -41 | 0.69µM* | -11
CCc1cc(CNC(=O)c2ccc3nc(Cc4ccc(OC)c(OC)c4)oc3c2)on1
  13 | -1.0 | . | . | .
O=C(c1cc(S(=O)(=O)N2CCOCC2)ccc1Cl)N1CCOCC1
  8 | 0.1 | . | . | .
CN1C(=O)CC(C(=O)O)SC1=Nc1cc(Cl)cc(Cl)c1 (configuration not stated)
  -5 | -7.2 | 4 | -2% | -53
Cc1c(NC(=O)c2cc3c(s2)CCCC3)c(=O)n(-c2ccccc2)n1C
  3 | 1.1 | -3 | 7% | .
CCOC(=O)c1c(C)c(C(=O)Nc2ccc(N(C)C)cc2)c(C)n1CC
  15 | -2.7 | -18 | -4% | -27
COc1ccc(/C=N/Nc2nc(N3CCCC3)nc(N3CCCC3)n2)c(OC)c1OC
  10 | -3.1 | -18 | 3% | -13

# (list continues)
# Values run as follows: Mtb betalactam | RecA intein inh | Arbovirus anti | Mtb growth | YopH inh
COc1cc(C)ccc1Oc1nc(-c2ccccc2O)nc2ccccc12
  -3 | -0.4 | . | 2% | .
O=C(CN1CCCCC1)N1CCc2ccccc21
  -6 | -1.1 | . | . | .
CCOC(=O)[C@@H]1[C@H]2COc3ccc(Br)cc3[C@H]2N2C(=O)N(c3ccc(Br)cc3)C(=O)[C@]12C
  -16 | 6.4 | . | . | .
O=C(Cc1cccs1)N/N=C/C(Cl)=C/c1ccccc1
  -4 | 0.7 | -1 | 13% | .
Cc1ccc(CNC(N)=S)cc1
  -5 | -0.3 | 6 | -9% | 1

# Compound activity from PubChem BioAssay.

# Not all compounds are listed; count on the stated rates, not on these rows.
